# VDR inh – blocks the human vitamin D receptor; P11473; VDR-SRC2-3 peptide fluorescence polarization, 2 h; Potency, µM, for inactives: max response, negative = inhibition, most hits filed as inhibitors; 400,000 compounds, 0.93% hits; active = well fitted inhibition curve with a large enough effect; inconclusive = small, poorly fitted or top-dose-only effect, or another doubt; inactive = no such curve, though single readings can be large or run the other way; note: series mostly up to about 120 µM
# Target sequence (P11473 whole entry, looked up): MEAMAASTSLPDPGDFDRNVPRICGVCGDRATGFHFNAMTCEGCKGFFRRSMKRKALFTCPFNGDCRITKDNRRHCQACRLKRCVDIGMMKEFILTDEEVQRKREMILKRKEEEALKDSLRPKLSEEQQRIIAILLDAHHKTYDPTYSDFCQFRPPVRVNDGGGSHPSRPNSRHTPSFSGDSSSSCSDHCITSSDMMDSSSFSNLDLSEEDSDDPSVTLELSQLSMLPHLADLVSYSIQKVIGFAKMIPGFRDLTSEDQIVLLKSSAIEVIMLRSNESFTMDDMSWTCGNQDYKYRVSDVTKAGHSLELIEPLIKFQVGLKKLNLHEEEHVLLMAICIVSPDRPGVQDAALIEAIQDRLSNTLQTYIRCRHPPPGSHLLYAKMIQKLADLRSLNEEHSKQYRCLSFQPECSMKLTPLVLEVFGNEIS
#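 After 23 nl compound addition and a short centrifugation, plates sat for 2 hours at ambient temperature; polarization of fluorescence then indicated loss of VDR binding to peptide SRC2-3.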
# The depositor's hits bear a star; u = inconclusive; & = joins results of further samples. % is set by controls: 0 for no effect and ±100 for the full control effect; potency is the fitted concentration of half-maximal effect. The list is partial; the hit share may differ from the screen's.
SMILES,VDR inh
Cc1cc(C)cc(NC(=O)CN2C(=O)NC(Cc3c[nH]c4ccccc34)C2=O)c1 (configuration not stated),-22.8%
CC1CN(C(=O)Cn2cc(SCC(=O)N3CCOCC3)c3ccccc32)CC(C)O1 (configuration not stated),-4.8%
O=C(NCc1ccccc1Cl)C1CCCN1C(=O)NCc1ccccc1 (configuration not stated),2.8%
CC(OC(=O)c1cccc(-n2cnnn2)c1)C(=O)Nc1ccc(F)cc1 (configuration not stated),-5.8%
CCC(c1nnnn1CCC(C)C)N1CCC(C(N)=O)CC1 (configuration not stated),-14.2%
COc1cc(C2CC(=O)Oc3cc(C)c(Br)c(C)c32)cc(OC)c1OC (configuration not stated),5.1%&-7.2%
Cc1cc(C)c(S(=O)(=O)NCC2CCC(C(=O)NCCCN3CCC(C)CC3)CC2)c(C)c1 (configuration not stated),u
O=C(OCn1nnc2ccccc2c1=O)c1ccc(S(=O)(=O)N2CCOCC2)cc1,0.1%
NC(=O)NCC(N)C(=O)O (configuration not stated),10.9%
CSc1nc2[nH]c(=O)[nH]c2c(=O)[nH]1,16.9%
O=S(=O)(O)c1nc2ccccc2n1CCOc1ccccc1,-7.7%
Cn1ncc(Cl)c1C(=O)NCc1cc(C(C)(C)C)n[nH]1,-16.1%
CCCn1c(=N)n(CCOc2ccc(OC)cc2)c2ccccc21,-7.2%
CC(C)C1Oc2ccccc2C(=O)N(CC(=O)c2ccc3c(c2)OCCO3)C1=O (configuration not stated),13.7%
CCOC(=O)N1CCN(C(=O)c2ccc3c(c2)sc2nc(-c4ccc(OC)cc4)cn23)CC1,8.4%
C#CCOc1ccc2ccccc2c1/C=C(/C#N)c1ccc(C(=O)O)cc1,0.4%
CCN(CC)c1nc(N)c2c(N)nc3c(c2c1C#N)CC(c1ccccc1)O3 (configuration not stated),26.1%
CCN1C(=O)[C@H]2[C@@H](c3ccc(-c4ccc(Cl)c(Cl)c4)cc3)N[C@@](CC(C)C)(C(=O)OC)[C@H]2C1=O,-14.1%
COc1cccc(C(=O)c2cn(CC(=O)Nc3cccc(Cl)c3C)c3nc(C)ccc3c2=O)c1,6.9%
O=C(O)c1ccc(S(=O)(=O)/N=C2\C=C(Nc3ccccc3F)C(=O)c3ccccc32)cc1,31.6µM*
O=C(c1ccccc1)n1nc(-c2ccco2)nc1NCc1ccccc1Cl,6.2%
O=C(CSc1nnc(-c2ccco2)n1-c1ccccc1)NCCc1ccccc1,-3.3%
COc1ccc(N2C(N)=C(C#N)C(c3cccnc3)C3=C2CC(C)(C)CC3=O)cc1 (configuration not stated),-1.6%
Nc1c(C(=O)NCc2ccccc2)sc2nc(N3CCOCC3)c3c(c12)CCCC3,-7.9%
CON(C)C(=O)/C=C/c1ccc([B-](F)(F)F)cc1,13.4%
Cc1ccc(C(=O)COC(=O)c2cccc(N3C(=O)c4c(C)nc5ccccc5c4C3=O)c2)cc1C,-11.3%
NC(=O)COC(=O)CNC(=O)c1sc2ccccc2c1Cl,-4.3%
COc1cc2c(cc1OC)-c1cc(OCCN3CCOCC3)nc(=O)n1CC2,-8.3%
CCC1OC2(C)OC(=N)C1(C#N)C(C#N)(C#N)C2c1ccccc1 (configuration not stated),-1.3%
CCN(CC)S(=O)(=O)c1ccc(OC)c(NC(=O)c2ccc(OC)c([N+](=O)[O-])c2)c1,14.8%
Cc1cc(NS(=O)(=O)c2ccc(NC(=O)CCN3C(=O)c4ccccc4C3=O)cc2)no1,2.8%
COC(=O)c1ccc(C(=O)OC)c(NC(=O)CCc2ccc(C)o2)c1,-15.5%
CC(C)C(=O)n1nc(-c2cccnc2)nc1NCc1cccs1,-9.5%
COc1cc(CC(=O)Nc2ccc3c(c2)CCC3)cc(OC)c1OC,-2.2%
COc1ccc(CCNC(=O)c2ccc(Cn3c(=O)c4ccccc4n(Cc4ccc(C)cc4)c3=O)cc2)cc1OC,-23.1%
CN(c1ccc(C(=O)NCc2ccccn2)cc1)S(C)(=O)=O,2.6%
COc1ccc(C(=O)NCCn2cc(SCc3c(F)cccc3Cl)c3ccccc32)cc1,4.2%
CCCNC(=O)CCC(=O)N1Cc2ccccc2Oc2ncccc21,-0.6%
Cc1ccc(S(=O)(=O)N(C)C)cc1NC(=O)COC(=O)c1c(C)noc1C,-1.9%
Cc1cc(C)nc(NC(=O)NS(=O)(=O)N2CCCCCC2)n1,-0.1%
O=C(c1ccc(CN2CCOCC2)cc1)N1CCN(c2ccccc2)CC1,-17.2%
Cc1ccc(S(=O)(=O)c2nc(S(=O)(=O)c3ccc(C)cc3)c(NCc3ccco3)s2)cc1,10.8%
Cc1ccccc1OC(=O)c1snnc1C,7.9%
COC(=O)c1cc(NC(=O)Cn2ncc3c2-c2ccccc2OC3)cc(C(=O)OC)c1,-11.1%
CCc1nnc(NC(=O)Cc2ccc(OC)cc2)s1,-6.8%
CO/N=C/CC(=O)Nc1ccc(F)cc1F,-4.5%
CCCCNC1(C#N)CCN(Cc2ccccc2)CC1,4.9%
Cn1cccc1C(=O)NC1CCCCC1,-3.0%
CC(=O)Cc1nsc(NC(=O)c2csc3c2CCCC3)n1,7.5%
C=CCOc1c(Br)cc(CNCCCN2CCOCC2)cc1OC,-9.7%
O=c1nc(Nc2cccc(Cl)c2)oc2cc(Cl)oc(=O)c12,-15.1%
FC(F)(F)c1ccc(NCc2ccccn2)nc1,-11.3%
CCOC(=O)c1c(NC(=O)Cc2coc3cc(C)ccc23)sc2c1CCCC2,8.0%
Cc1ccc2nc(-c3cccc(N)c3)[nH]c2c1,-4.9%
O=C(Nc1ccc(Cl)cc1)Nc1ccccc1C(=O)NCc1ccco1,-6.6%
O=C(NCc1ccccc1)c1cc(-c2ccncc2)nc2ccc(S(=O)(=O)N3CCOCC3)cc12,-11.3%
COC(=O)CCC(=O)OC,-4.4%
COc1cc(NS(=O)(=O)c2cccc3nsnc23)cc(OC)c1,7.0%
N#C/C(=C\c1cn(-c2ccccc2)nc1-c1ccccc1)S(=O)(=O)c1ccccc1,7.5%
c1ccc(-c2cnc(SCCN3CCOCC3)n2CC2CCCO2)cc1 (configuration not stated),-10.1%

# Arranged by the number under VDR inh (descending): some entries from above
molecule | VDR inh
N#C/C(=C\c1cn(-c2ccccc2)nc1-c1ccccc1)S(=O)(=O)c1ccccc1 | 7.5%
CCCNC(=O)CCC(=O)N1Cc2ccccc2Oc2ncccc21 | -0.6%
Cn1ncc(Cl)c1C(=O)NCc1cc(C(C)(C)C)n[nH]1 | -16.1%

# Carrying on.
SMILES,VDR inh
O=C(O)/C(=C\c1cn(-c2ccccc2)nc1-c1ccc(Cl)cc1)NC(=O)c1ccccc1,-7.2%
COc1cccc2c1Oc1ncccc1N(C(=O)CCC(=O)NCc1ccc(N(C)C)cc1)C2,2.9%
O=C(c1ccco1)N1CCn2c1nc1ccccc12,3.5%
CCOCC(O)CS(=O)(=O)c1ccccn1 (configuration not stated),-0.8%
CC(=O)Nc1ccc(NCc2ccc(-c3ccccc3)cc2)cc1,22.8%
CCC1CCCCN1C(=O)CSc1nnc2nc(C)cc(C)n12 (configuration not stated),-16.2%
O=S(=O)(c1ccc(F)cc1)N1CCN(c2ccc(F)cc2)CC1,-10.8%
COc1ccc(C(=O)/C=C/Nc2c(C)n(C)n(-c3ccccc3)c2=O)cc1OC,u
Cc1cc(Cl)c(S(=O)(=O)N2CCN(c3cccc(C)c3C)CC2)cc1OCC(N)=O,4.1%
Cc1ccnc(NS(=O)(=O)c2ccc(NC(=O)c3cc(=O)c4ccccc4o3)cc2)n1,-19.2%
CCN(C(=O)Cn1cnc2cc([N+](=O)[O-])ccc2c1=O)C1CCS(=O)(=O)C1 (configuration not stated),-9.8%
O=C1CN(N=Cc2ccco2)C(=O)N1,6.1%

# In a second layout: entries from further up.
Compound | VDR inh
COc1ccc(C(=O)/C=C/Nc2c(C)n(C)n(-c3ccccc3)c2=O)cc1OC | u
Cc1cc(Cl)c(S(=O)(=O)N2CCN(c3cccc(C)c3C)CC2)cc1OCC(N)=O | 4.1%

# The listing continues.
SMILES,VDR inh
COCCCNC(=S)N1CCN(S(C)(=O)=O)CC1,12.2%
CCCCC1C2=C(CC(C)(C)CC2=O)OC2=C1C(=O)CC(C)(C)C2,-7.4%
CCOc1ccc2oc(C(=O)OCC(=O)NC(=O)NC3CCCC3)c(C)c2c1,-6.7%
O=C(O)COc1ccccc1O,-3.2%
COc1ccc2c(c1)OCC(Cc1ccc(OC)c(OC(C)=O)c1)C2=O (configuration not stated),-11.8%
COC(=O)c1ccc(COC(=O)c2[nH]c(C)c(C(C)=O)c2C)o1,4.2%
CC(C)NC(=S)N(CCc1ccncc1)C(C)C,6.5%
Cc1ccccc1OCC(O)CNC1CCC(NCC(O)COc2ccccc2C)CC1 (configuration not stated),1.3%
C=CCNc1nc(Cl)nc(Nc2ccc([N+](=O)[O-])cc2)n1,-27.6%
COc1ccc(NC(=O)c2cn(-c3ccccc3)nc2-c2ccc(C)cc2)cc1,3.3%
COc1cc2ccccc2cc1C(=O)NC(=S)Nc1ccc(C(=O)O)cc1,-1.5%
CCCOc1cc(CC(=O)NCc2ccco2)ccc1OC,9.9%
COc1ccccc1N(CCC#N)C(=O)CSc1nc(-c2ccccc2)cn1N,-3.2%
CCOC(=O)c1c(NC(=O)c2c(Br)cnn2C)c(C#N)nn1-c1ccccc1,-9.2%
O=C(COC(=O)/C=C/c1nc2ccccc2s1)Nc1cccc2ccccc12,-6.7%
Cc1cccc(-n2c(SCC(=O)O)nc3sc4c(c3c2=O)CCCC4)c1,-29.3%
COc1ccc(Br)cc1CNC(=O)C1CCCN(c2nc3ccccc3o2)C1 (configuration not stated),-9.6%
CCS(=O)(=O)N(CC(=O)Nc1cccc2ccccc12)c1ccc(OC)cc1,-3.7%
Cc1[nH]c2ccccc2c1CCN(Cc1cccs1)C(=S)NC(C)(C)C,-2.0%
CCCCC(C(=O)NC(C)(C)C)N(Cc1ccco1)C(=O)c1snc(C(N)=O)c1N (configuration not stated),-18.7%
Cc1ccc(NC(=O)CCC(=O)N2CCSc3ccccc32)cc1Cl,2.7%
CCCCOc1ccc(C(=O)Nc2cccc(-c3nc4ccccc4o3)c2C)cc1,-19.9%
CCOC(=O)CSc1nnc(NC(=O)CN2CCN(C=O)CC2)s1,-0.1%
Cc1ccc(C(=O)NCC2CCCN2S(=O)(=O)c2cccs2)cc1C (configuration not stated),12.8%

# VDR inh: hit marks shown above.
SMILES,VDR inh
O=C(O)c1ccc(S(=O)(=O)/N=C2\C=C(Nc3ccccc3F)C(=O)c3ccccc32)cc1,31.6µM*

# The list continues:
SMILES,VDR inh
Cc1ccccc1-n1nc(-c2cccnc2)cc1C(=O)N/N=C/c1ccncc1,1.7%
Cc1ccc(Cn2c(CN3CCOCC3)nc3c2c(=O)[nH]c(=O)n3C)cc1,2.2%
O=C(Nc1cccc(Cl)c1)Nc1nc(-c2ccccc2)cs1,-10.7%
Cc1ccc(OCCCCn2c(CO)nc3ccccc32)cc1,-10.5%
CCN(CC)C(=O)[C@H]1C[C@H](CC(=O)NCCCOC)C(=O)N2CCc3c([nH]c4cc(CCC(=O)N(C)C)ccc34)[C@]12C,-16.9%
Cc1ccc(S(=O)(=O)N(CC(=O)Nc2cccnc2)c2cc(Cl)ccc2C)cc1,14.3%
CCOC(=O)C(=O)Nc1nc(-c2ccccc2)c(CC)s1,-2.6%
COc1cccc(NC(=O)Cc2nc(-c3ccccc3)sc2-c2ccc(C)cc2)c1,10.5%
O=C(Nc1cccc(F)c1)c1cc(S(=O)(=O)N2CCC(C(=O)O)CC2)ccc1F,25.2%
Cc1ccc(OCc2cc(C(=O)NCCn3cccn3)no2)cc1C,8.8%
O=C(Nc1ccccc1C(=O)NC(Cc1ccccc1)C(=O)NC1CCCCC1)c1ccccc1 (configuration not stated),-5.7%
O=C(NCCCNC(=O)c1c(F)cccc1F)c1c(F)cccc1F,4.1%
COc1cc(/C=N/NC(=O)C2=NNC(=O)C2C)ccc1O (configuration not stated),2.0%
O=C(CSc1ccccc1)NN1C(=O)c2ccccc2C1=O,3.1%
COc1ccc(NC(=O)C2CCCN(S(=O)(=O)c3ccc4[nH]c(=O)ccc4c3)C2)cc1OC (configuration not stated),-13.5%&12.6%
COc1ccc(-c2nc(CS(=O)CC(=O)NCC3CCCO3)c(C)o2)cc1 (configuration not stated),-0.6%
COCCCNC(=O)Cn1cnc(C(=O)Nc2ccc(C)c(C)c2)n1,-16.0%
COc1ccc(CNC(=O)C2CC(c3ccccc3[N+](=O)[O-])=NO2)cc1 (configuration not stated),1.5%
CN(CC(=O)NCc1ccc(F)cc1)S(=O)(=O)c1ccc2c(c1)c(=O)n(C)c(=O)n2C,-20.8%
O=C(Nc1nncs1)c1cc(-c2ccncc2)nc2ccc(Cl)cc12,0.9%
CCOc1ccccc1NC(=O)Nc1ccsc1C(=O)OC,-3.9%
CC(C)Nc1nc(NC(C)C)nc(Oc2ccc(=O)n(C)n2)n1,-1.0%
CC1CCN(C(=O)c2[nH]cnc2C(=O)N[C@H](C)c2ccccc2)CC1,-20.0%
CN(CCC1CCOCC1)C(=O)CC1C(=O)NCCN1Cc1c(F)cccc1Cl (configuration not stated),-7.3%
CCOC(=O)c1nnc(-c2ccccc2)nc1Oc1ccccc1Cl,u
CCN(Cc1ccccc1)C(=O)COC(=O)c1c(C)nsc1NC,10.5%
COc1ccc2c(C)c(CC(=O)NCc3ccc(C)cc3)c(=O)oc2c1OC,2.8%
Cc1nn(-c2ccc(Cl)cn2)c2c1C(=O)CC(C)(C)C2Br (configuration not stated),u
COc1cccc(OCCCCN2CCCCC2)c1,-0.5%
CCOC(=O)N1CCN(Cc2nc3cc(NC(C)=O)ccc3n2C)CC1,-8.2%
CCn1c(SCCC#N)nnc1-c1ccncc1,-0.8%
COc1ccc(CCNC(=O)COC(=O)C2CC2)cc1OC,-7.0%
CCOc1cc(C2C(C(=O)c3ccccc3)=C(C(=O)OC)Nc3nnnn32)ccc1O (configuration not stated),17.4%

# Of the compounds above, 3 contain a tert-butyl group:
SMILES,VDR inh
Cn1ncc(Cl)c1C(=O)NCc1cc(C(C)(C)C)n[nH]1,-16.1%
Cc1[nH]c2ccccc2c1CCN(Cc1cccs1)C(=S)NC(C)(C)C,-2.0%
CCCCC(C(=O)NC(C)(C)C)N(Cc1ccco1)C(=O)c1snc(C(N)=O)c1N (configuration not stated),-18.7%

# Bioassay records as filed in PubChem.
